BJeLR lethal: BJeLR cell viability loss; inhibition, % (test concentration not listed); AID 1554; BJeLR (HRASV12) viability, CellTiter-Glo ATP luminescence, 48 h; reference of the scale not given here; 300,000 tested, 0.17% active;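 active = replicate mean above 50%; inconclusive = above 50% but judged a plate artefact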;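 note: 50 nL library stock added to about 25 µL; numbers are from one replicate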
Sa RN4220 lethal: kills Staphylococcus aureus RN4220; S. aureus RN4220 growth, OD600, 16 h; inhibition, % (no concentration beside the values); 330,000 tested, 0.33% active; AID 1259311;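 active = z-score of -3 or lower and OD600 up to 0.18 on both plates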;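 note: plate controls were untreated cells for no effect and reference antibiotic for full effect; stock transfer was 100 nL into about 80 µL; one replicate is shown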
ugtP null kill: kills S. aureus RN4220 lacking UgtP; S. aureus RN4220 ugtP deletion, OD600 growth, 16 h; some inactives read as strong as hits; growth inhibition, % (no concentration beside the values); 330,000 tested, 0.54% active;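 active = z-score under -3 and OD600 up to 0.15 on both plates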;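 note: plate controls were untreated wells for no effect and antibiotic for full effect; wells of about 80 µL received 100 nL stock; the first replicate is given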
PrP 5UTR inh: suppresses PrP 5' UTR mRNA reporter expression; inhibition, % (concentration not given with the values); AID 488862; cell-based PrP 5' UTR mRNA reporter, plate reader; 340,000 tested, 0.35% active;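 active = every replicate at 50% or more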;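 note: 0 = median of the neutral control wells; tested in H4 reporter cells; numbers are from one replicate; inactives centre near -14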
Bead autofluor: compound fluorescence in toxin protease inhibitor counterscreen. compound autofluorescence counterscreen, microsphere flow cytometry; hits give high values. fluorescence intensity (test concentration not listed). 360,000 tested, 3.1% active. AID 624483;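 active = at least 3 SD above the mean of all compounds, about 16000 in these data; inconclusive = too few beads counted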;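 note: 100 nL of 1 mM stock went into each well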
Mtb hypoxia rep: reduces hypoxia-regulated biosensor signal in M. tuberculosis; fluorescence inhibition, % (test concentration not listed); 300,000 tested, 0.1% active; M. tuberculosis hypoxia-regulated fluorescent reporter, fluorescence;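 active = 35 to 45% if threefold the growth effect, above 45% if 1.5-fold the growth effect; inactive = the rest, general growth blockers included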;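 note: wells of about 50 µL received 100 nL stock; 0% = vehicle wells and 100% = reference inhibitor wells; whole bacteria with a GFP reporter of the hypoxia response; strong numbers were not always called active; many hits fall short of the cut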
Mtb hypoxia rep growth: further read-out of Mtb hypoxia rep, marked with its call; growth inhibition, %; measured here: M. tuberculosis growth (absorbance);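 0% = vehicle and 100% = reference antibiotic; read after six days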
Active calls of the source: *; ? = inconclusive; nt = not tested or not shown; & = joins results of further samples.

SMILES	BJeLR lethal	Sa RN4220 lethal	ugtP null kill	PrP 5UTR inh	Bead autofluor	Mtb hypoxia rep	Mtb hypoxia rep growth
COc1ccc(C)cc1NC1=NCCCS1	-1	1.0	6	-2	4970	5	1
COc1ncccc1C(=O)N1CCC(n2nccc2NC(=O)CC(C)C)CC1	-11	4.1	-2	-22	5775	-1	2
O=C(Cc1ccccc1)NC1CCS(=O)(=O)C1 (centres undefined)	-2	-1.8	-10	-20	3047	0	-6
Cc1cccc(NC(=O)CCCN2C(=O)c3ccccc3C2=O)n1	1	1.7	2	-5	4113	9	-1
COc1ccc(NC(=O)CCN2C(=O)C3C4C=CC(C4)C3C2=O)cc1 (centres undefined)	0	0.3	6	-22	3371	6	2
Cc1ccc(NC(=O)Cc2nnc(N)s2)cc1	4	1.6	4	-20	3912	14	-1
COc1cccc2c(O)cc(=O)n(C)c12	-6	2.5	14	1	9367	8	11
CCc1ccc(-c2c(C)sc(NC(=O)C3CCC3)c2C#N)cc1	15	2.7	5	-26	10264	2	3
C=C1C[C@]23C[C@@]1(O)CC[C@H]2[C@@]12C=C[C@H](O)[C@@](C)(C(=O)O1)[C@H]2[C@@H]3C(=O)O	nt	2.4	4	-30&-11	5148&5824	11	12
Cc1ccc(NC(=O)COC(=O)c2c(C)nn(-c3ccccc3)c2C)cc1	nt	-3.0	6	-5	4028	9	5
COc1ccc(C(CC(=O)O)N2Cc3ccccc3C2=O)cc1OC (centres undefined)	-5	3.8	8	8	3906	-2	8
O=C(CSc1nnc(-c2cccnc2)o1)Nc1cccc(F)c1	-14	-0.4	5	-54	nt	-6	9
CC(C)C(NC(=O)c1ccccc1)C(=O)OCC(=O)Nc1ccc2c(c1)OCCO2 (centres undefined)	nt	8.5	-3	nt	nt	-1	12
CCOCCCNC(=O)N1CCOCC1	1	-1.8	-3	-15	8769	-8	11
COc1ccccc1S(=O)(=O)Cc1ccc(C(=O)NCCN(C)C)o1	-15	1.6	3	-22	5508	nt	nt
CCOC(=O)[C@@H]1[C@H]2COc3ccccc3[C@@H]2N2C(=O)N(c3ccc(Br)cc3)C(=O)[C@]12C	nt	-1.3	8	-8	2881	4	-2
COCc1cccc(C2=CC(=O)CC(c3ccc(OC)cc3)C2)c1 (centres undefined)	nt	8.2	6	nt	nt	25	5
CC(=NNC(=O)c1cc(C2CC2)[nH]n1)c1cccs1	nt	5.8	-2	nt	nt	0	9
COc1cccc(C(=O)N/N=C/C(Br)=C/c2ccccc2)c1	-13	nt	nt	-11	2411	nt	nt
NC(=O)c1ccsc1NC(=O)CSc1ncnc2sccc12	nt	3.7	-14	4	3650	6	7
Oc1[nH]c2ccccc2c1C=Nc1ccc2c(c1)OCO2	-3	17	-12	-113	10509	11	11
O=C(O)CCC(=O)NNc1nc2ccccc2nc1-c1ccccc1	8	1.1	5	-11	3284	0	-5
CCOC(=O)C(=O)NCC(c1ccco1)S(=O)(=O)c1cccs1 (centres undefined)	1	0.7	-2	12	6124	-8	9
CCSc1nc2ccccc2n1Cc1ccccc1F	10	-6.1	20	-39	9595	7	-1
O=C(CNC(=O)c1ccc2c(c1)OCCO2)NN=Cc1cccc(Br)c1	nt	2.5	6	nt	nt	8	-1
CCCC[n+]1ccn(-c2nc3ccccc3nc2[N-]S(=O)(=O)c2ccc(Br)cc2)c1	8	-2.7	-4	-10	2946	-6	-1
CCN(Cc1cc2ccccc2[nH]c1=O)C(=O)c1cccc([N+](=O)[O-])c1	-2	1.1	3	nt	nt	6	-3
CCN(CC(=O)Nc1c(F)cccc1F)C(=O)Cc1csc(-c2ccccc2)n1	2	8.8	4	-14	?	11	-4
COC(=O)c1sc2nc(C)nc(SCC(=O)Nc3sccc3C(N)=O)c2c1C	nt	13	2	3	2847	10	2
O=C(Nc1cccc(C(F)(F)F)c1)NC1CCN(S(=O)(=O)c2ccc(F)cc2)CC1	6	-0.2	-1	11	3880	16	6
O=C1C2C3C=CC(C4CC34)C2C(=O)N1/N=C/c1ccc(-c2ccccc2[N+](=O)[O-])o1 (centres undefined)	-6	nt	nt	-10	4695	nt	nt
CCN1CCN(c2ccc(S(=O)(=O)N3CCCCC3)cc2NC(=O)CC(C)c2ccccc2)CC1 (centres undefined)	-1	3.9	4	-8	6065	-1	-11
COc1ccc(Cc2nnc(-c3ccc(F)cc3)o2)cc1OC	-14	5.1	-2	-2	6184	18	9
Cn1c(=O)c2c(SCC(=O)N3CCCc4ccccc43)nc(CC(C)(C)C)nc2n(C)c1=O	-7	nt	nt	-5	5786	nt	nt
CCCOC(=O)c1ccc(NC(=O)Cc2cccs2)cc1	-8	-4.7	0	-31	3696	-4	-2
O=C(NN=Cc1ccccn1)c1cc(C2CC2)nc2ccccc12	nt	4.4	8	nt	nt	14	5
COc1ccc(NC(=O)COC(=O)CNS(=O)(=O)c2ccccc2)cc1OC	13	5.5	6	-16	4454	13	-2
CC1(C)Cc2nc3[nH]c(=S)n(-c4ccccc4)c(=O)c3cc2CO1	nt	0.8	6	-6	15169	-31	5
CCN(CC)S(=O)(=O)c1ccc(N2CCCC2)c(NS(=O)(=O)c2ccccc2)c1	-5	6.3	-6	-15	2565	3	8
CCOc1ccc(/C=C2\SC(=S)N(CC(=O)NCCCN3CCOCC3)C2=O)cc1	-7	4.9	-8	-18	3851	16	3

Two entries picked at random from the list so far, as already listed:
SMILES	BJeLR lethal	Sa RN4220 lethal	ugtP null kill	PrP 5UTR inh	Bead autofluor	Mtb hypoxia rep	Mtb hypoxia rep growth
COC(=O)c1sc2nc(C)nc(SCC(=O)Nc3sccc3C(N)=O)c2c1C	nt	13	2	3	2847	10	2
O=C(CNC(=O)c1ccc2c(c1)OCCO2)NN=Cc1cccc(Br)c1	nt	2.5	6	nt	nt	8	-1

The list continues:
SMILES	BJeLR lethal	Sa RN4220 lethal	ugtP null kill	PrP 5UTR inh	Bead autofluor	Mtb hypoxia rep	Mtb hypoxia rep growth
COCC(C)n1c(SCc2nc3ccccc3c(=O)[nH]2)nc2ccccc2c1=O (centres undefined)	4	2.7	10	-8	4139	5	9
COc1cccc(-c2nnc(SCC(=O)Nc3cc(C)on3)n2C)c1	4	5.7	11	-39	5759	7	7
CC(C)C(=O)NS(=O)(=O)c1ccc(N)cc1	8	2.2	-2	-13	2282	14	12
Oc1oc(C=Nc2ccc(F)cc2F)c2ccccc12	-3	3.4	2	-24	2148	-7	-23
CCCCN(C(=O)COC(=O)CSc1cc(C)c2ccccc2n1)c1c(N)n(CCC)c(=O)[nH]c1=O	0	8.0	4	-30	5263	-3	-1
CCOc1ccc(-n2c(=O)c3sccc3n(CC(=O)NC3CCCCC3)c2=O)cc1	-9	-0.8	-2	-30	5665	-7	-3
CC1(C)CC(=O)C2=C(C1)Oc1ncn(Cc3ccco3)c(=N)c1C2c1ccccc1 (centres undefined)	11	-1.0	-2	-11	3254	nt	nt
S=C(NCc1ccco1)Nc1ccccn1	-8	4.1	3	-10	4071	11	7
COC(=O)c1nn(-c2ccccc2)c2nnc(Cc3ccc(C)cc3)c(=O)n12	7	1.1	14	-2	2090	10	5
Cc1ccnc(NC(=O)COc2ccc3oc4c(c3c2)CCCC4)c1	5	5.4	-22	-40	2371	-14	0
Cc1ccc(C)c(N2CCN(C(=O)CCc3nc(-c4ccccc4C(F)(F)F)no3)CC2)c1	nt	-2.6	19	-91	4044	-2	3
O=C(O)c1ccc(N2C(=O)c3[nH]nc(-c4ccccc4)c3C2c2ccccc2)cc1 (centres undefined)	4	7.9	10	-16	4467	12	5
O=C(/C=C/c1cn(-c2ccccc2)nc1-c1cccnc1)NCCN1CCOCC1	nt	8.4	8	-44	4693	17	5
COC(=O)C1N2C(=O)[C@@H](NC(=O)COc3ccccc3)[C@H]2SC1(C)C (some centres undefined)	8	nt	nt	-11	3477	nt	nt
O=C(O)C1CCCCN1C(=O)c1ccc(S(=O)(=O)N2CCCC2)cc1 (centres undefined)	nt	4.9	15	-16	5589	9	3
COc1ccc(NS(=O)(=O)c2ccc(OCC(=O)N3CCOCC3)cc2)cc1	-11	4.3	7	-11	5199	-4	-4
Fc1cccc(Cn2cc(C(=S)N3CCCCC3)c3ccccc32)c1	-15	2.8	7	-9	2352	nt	nt
Cc1nc(S(=O)(=O)c2ccc(Cl)cc2)c(NCc2ccccc2)o1	2	nt	nt	-14	3825	nt	nt
O=C(NN=Cc1ccc(CNS(=O)(=O)c2ccc(Cl)cc2)o1)C(=O)Nc1ccc(Oc2ccccc2)cc1	nt	2.7	2	nt	nt	9	4
CCCn1c(SCC(=O)c2c[nH]c3ccccc23)nnc1-c1ccncc1	-17	5.9	-5	-10	4586	15	7
Cn1c(NCc2ccccc2)nc2c1c(=O)n(Cc1ccccc1)c(=O)n2C	10	-2.0	8	-15	10138	0	0
Cc1cc(NC(=O)CSc2nc3c(C)cccc3cc2C#N)no1	27	-1.7	9	-57	4298	7	-3
COc1ccc(N2CC(C(=O)Nc3c4c(nn3-c3ccc(OC)cc3)CS(=O)(=O)C4)CC2=O)cc1 (centres undefined)	0	1.7	4	11	4554	8	14
CC12CCC(C(=O)NCCCN3CCOCC3)(C(Br)C1=O)C2(C)C (centres undefined)	5	2.1	4	-22	6089	-6	-8
O=C(OCC(=O)c1ccccc1Br)c1ccccn1	11	7.9	10	-30	4003	nt	nt
Cc1nc(C)c(-c2ccn(S(=O)(=O)c3ccc(Cl)cc3)n2)o1	-9	6.7	2	-23	3817	14	4
COC(=O)c1ccc(NC(=S)N2CCN(C(=O)c3ccco3)CC2)cc1	-3	1.8	1	-12	6324	10	-1
O=C(Nc1nnc(-c2ccccc2)s1)c1cccc(S(=O)(=O)N2CCOCC2)c1	-3	8.0	-7	-13	2968	nt	nt
O=C(Nc1ccc(F)cc1)c1cc(-c2ccccn2)nc2c(Cl)cccc12	-2	2.2	1	8	5403	0	-3
O=C1CCCN1CCCNc1nc2c(S(=O)(=O)c3ccc(Br)cc3)nnn2c2ccccc12	-4	5.3	-3	-14	6276	0	-5
COC(=O)c1ccc(NC(=O)COc2ccccc2OC)cc1	2	17	0	-17	3066	7	6
COC(=O)c1ccc(CSc2nc3ccccc3s2)o1	1	11	18	-60	9799	-4	2
Cc1occc1C(=O)NNC(=O)c1ccccc1F	-14	-0.4	3	-4	3238	9	-4
Cn1cc(S(=O)(=O)NC[C@H]2O[C@@H](n3cnc4c(N)ncnc43)[C@H](O)[C@@H]2O)cn1	nt	2.7	7	4	3381	0	-1
O=C(c1ccccc1)[C@H]1CC=CC[C@H]1C(=O)O	-3	-9.0	-6	-30	3329	9	10
CCc1cccc(C)c1NC(=O)CN(C)S(=O)(=O)c1ccc(-c2ccc(=O)[nH]n2)s1	2	1.5	1	-13	5776	2	1
N/C(=N\OC(=O)Cc1ccccc1)c1ccccn1	-2	6.7	10	-19	2780	9	5
O=S1(=O)CCO[C@H]2Cc3ccccc3[C@H]2N1Cc1cccc(C(F)(F)F)c1	8	nt	nt	-15	3059	nt	nt
CC1=NN(c2ccc(Br)cc2)C(=O)/C1=C/c1ccc(-c2ccccc2C(=O)O)o1	0	0.3	4	-5	nt	8	-6
Fc1ccc(NC(=S)Nc2cccnc2)cc1	1	4.7	1	-20	3821	3	10
CCCCCOc1ccc(C(C)=NNC2=NCCN2)cc1	nt	-4.0	-22	nt	nt	7	12
C[C@]12CCC3C(CC[C@H]4C[C@@H](O)CC[C@]34C)C1[C@H]1CN=N[C@H]1[C@@H]2O (some centres undefined)	nt	3.1	3	-1	4621	-9	4
COc1ccc(/C=C/C(=O)NCC(=O)N/N=C(/C)c2ccc(Cl)cc2)cc1	6	nt	nt	-21	4278	nt	nt
COC(C(=O)NN=C(C)c1ccc(C)cc1)c1ccccc1 (centres undefined)	nt	4.9	11	nt	nt	1	1
CCCCCC(=O)Nc1ccc(C(=O)NN=Cc2ccc([N+](=O)[O-])cc2)cc1	nt	0.3	14	nt	nt	5	10
CCOc1cc(N2CCOCC2)c(OCC)cc1NC(=O)c1ccc(OC(C)C)cc1	2	5.9	13	-64	3230	7	4
N#C/C(=C\c1ccc(Cl)s1)C(=O)N1CCN(c2ccccc2)CC1	-4	-0.3	-2	-50	2481	-13	5
C/C(N)=C(/C#N)C(=O)COC(=O)C(c1ccccc1)c1ccccc1	-3	6.2	-2	-15	5392	5	15
Cc1nc(CS(=O)c2ccc(Cl)cc2)cc(N2CCOCC2)n1 (centres undefined)	11	-1.2	3	-29	2103	nt	nt
